Screens (PubChem)
Sfp PPTase inh – inhibitors of Bacillus subtilis Sfp phosphopantetheinyl transferase. Q9F4F7. Biochemical Sfp PPTase activity, qHTS. Potency, µM, inactives show max response, negative = inhibition, usual class: inhibitors. hit rate 3.5% among 310,000; active = well fitted inhibition curve with a large enough effect; inconclusive = small, poorly fitted or top-dose-only effect, or another doubt; inactive = no such curve, though single readings can be large or run the other way;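 also: the enzyme is Sfp with the accession as filed and its product quenches rhodamine fluorescence; potency is read from the fitted curve at half-maximal effect; 0% = enzyme reaction without inhibitor and -100% = no enzyme wells; top concentration of the series not given in the record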
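After 15 min at room temperature with compound, 15 nM Sfp received 5 uM rhodamine-CoA plus 12.5 uM BHQ-2-ybbR (50 mM Hepes pH 7.6, 10 mM MgCl2). Rate came from the fluorescence difference over 30 min, ex 525/em 598 nm.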
D2 agonist – activates the human D2 dopamine receptor; DiscoveRx PathHunter D2 beta-arrestin, luminescence, 90 min; 100% = 57 uM dopamine signal; activation, % (test concentration not listed); hit rate 0.084% among 360,000; in the data active = activation above about 40%; inconclusive = about 15% to 40%; inactive = below about 15%; also: compound concentration not given in the record; the text of the record calls up to 30% inactive
Target sequence (P14416 whole entry, looked up): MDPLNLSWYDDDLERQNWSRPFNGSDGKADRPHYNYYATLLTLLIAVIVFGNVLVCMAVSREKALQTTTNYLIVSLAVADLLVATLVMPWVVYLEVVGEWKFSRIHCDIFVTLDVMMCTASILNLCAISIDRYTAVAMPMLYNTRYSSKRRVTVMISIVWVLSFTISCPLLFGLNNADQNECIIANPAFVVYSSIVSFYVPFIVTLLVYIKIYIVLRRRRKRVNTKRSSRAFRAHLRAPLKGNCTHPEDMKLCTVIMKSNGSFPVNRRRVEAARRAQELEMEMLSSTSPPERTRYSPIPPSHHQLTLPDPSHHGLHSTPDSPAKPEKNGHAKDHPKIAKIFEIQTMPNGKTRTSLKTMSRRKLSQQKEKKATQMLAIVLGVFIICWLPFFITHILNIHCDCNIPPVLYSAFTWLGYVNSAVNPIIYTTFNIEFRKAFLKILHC
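Agonist mode: compounds alone added to overnight-plated D2 PathHunter cells for 90 min at 37 C, with 57 uM final dopamine (EC100) defining full response. Beta-arrestin recruitment detected by chemiluminescent reagent, read after 1 h at ambient temperature.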
Menin-MLL FL inh – menin-MLL binding inhibition, fluorescein peptide. Fluorescence polarization, fluorescein-MLL peptide displacement from menin. FP activity change, % at 61.4 µM. 290,000 tested, under 10 active. AID 1766; inconclusive = falling polarisation curve, or a change in total fluorescence; inactive = total fluorescence flat and polarisation flat or rising; no compound was filed as active; the % refers to the polarisation; negative = inhibition;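 also: % of control where 0% means no effect; inhibitors lower the polarisation; unlabelled MLL peptide was the positive control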
PINK1 modulator – PINK1 expression modulation | PINK1 immunofluorescence, high-content cytometry, 24 h | hit rate 0.2% among 410,000 | Potency, µM (series often up to 76.6 µM), without a hit: at the highest dose activation (PINK1 increase), actives largely listed as activators; active = well fitted activation curve with a large enough effect; inconclusive = small, poorly fitted or top-dose-only effect; inactive = flat fitted curve, though single readings scatter; cell line not stated here;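 also: potency is read from the fitted curve at half-maximal effect; % of control where 0% means no effect; nearly all actives have a fitted effect of over 65% in size; a mitochondrial uncoupler was the plate control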
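PINK1 protein level read as immunofluorescence by microplate cytometer in a fixed, stained stable cell line after 24 h exposure to five compound concentrations, with CCCP as control.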
ClpP mod – qHTS Assay for Activators of ClpP; ATP-dependent Clp protease proteolytic subunit (Bacillus subtilis (strain 168)), P80244; purified B. subtilis ClpP, FRET peptide cleavage, 20 min; Potency, µM (titrated, usually from 57.5 µM), inactives show at the top dose activity change, negative = active; hit rate 1.9% among 340,000; AID 651965, 2013; active = well fitted falling curve with a large enough effect; inconclusive = small, poorly fitted or top-dose-only effect; inactive = no such curve, though single readings can be large or run the other way; also: potency is read from the fitted curve at half-maximal effect; the source files actives as falling curves though it sought activators and does not explain the sign; nearly all actives have a fitted effect of over 65% in size; many hits overshoot -100%
Target sequence (P80244 whole entry, looked up): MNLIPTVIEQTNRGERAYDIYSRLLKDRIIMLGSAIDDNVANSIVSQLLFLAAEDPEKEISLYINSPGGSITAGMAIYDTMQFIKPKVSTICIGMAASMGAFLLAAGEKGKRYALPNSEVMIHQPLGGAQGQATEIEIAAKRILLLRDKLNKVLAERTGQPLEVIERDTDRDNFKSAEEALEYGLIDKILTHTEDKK
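ClpP 10 microg/mL final, pH 8 Tris/KCl buffer with BSA, glycerol, Tween-20; compound pinned in; FRET-FV substrate; RT 20 min; Ex320/Em430; ΔFRET vs ADEP 5.8 microM, DMSO, no enzyme.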
gsp antag – gsp mutant antagonism. hit rate 0.4% among 340,000. AID 624288. gsp-mutant cells, cAMP HTRF, 30 min; control for the full effect not named in the record. Potency, µM (titrated, usually from 76.9 µM), for the others: at the highest dose activity change, negative = inhibition, hits mostly inhibitors; active = falling curve of any shape with a large fitted effect; inconclusive = falling curve, mostly with a smaller effect; inactive = flat or rising curve; cell line not stated here;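 also: intracellular cAMP measured with PDE inhibitor Ro 20-1724 present during compound exposure; potency is read from the fitted curve at half-maximal effect; % is scaled to controls: 0 for no effect and ±100 for the full control effect; nearly all actives have a fitted effect of over 65% in size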
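G418-selected cells were plated in DMEM/10% FBS for 16-24 h at 37C, then treated with compounds plus the PDE inhibitor […] (300 uM solution added) for 30 min at 37C. Intracellular cAMP was measured by HTRF after 30 min lysis at room temperature.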
gsp agonist – agonists of gsp mutant (McCune-Albright syndrome); gsp mutant cells, cAMP HTRF, 30 min; control for the full effect not named in the record; Potency, µM (doses to about 76.9 µM), without a hit: top-dose activation (cAMP increase), hits mostly activators; hit rate 0.13% among 340,000; AID 624287; active = well fitted activation curve with a large enough effect; inconclusive = small, poorly fitted or top-dose-only effect, or another doubt; inactive = no such curve, though single readings can be large or run the other way; cell line not stated here;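 also: phosphodiesterase inhibitor Ro 20-1724 added with compounds to block cAMP breakdown; potency is read from the fitted curve at half-maximal effect; nearly all actives have a fitted effect of over 60% in size; about a fifth of the inactives were tested at one dose only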
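Cells stably selected in G418 were plated at 2000/well, grown 16-24 hr, then given compounds in DMSO with the PDE inhibitor […] (300 uM solution added) for 30 min at 37C; cAMP was read by HTRF.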
Starred values were filed as active, the others as inactive; ? = inconclusive; nt = not tested or not shown; & = joins results of further samples; [ ] = another dose, or the depositor's remark.

SMILES	Sfp PPTase inh	D2 agonist	Menin-MLL FL inh	PINK1 modulator	ClpP mod	gsp antag	gsp agonist
COc1ccc(NC(C)=O)cc1NC(C)C(=O)Nc1ccc(F)cc1 (stereo unspecified)	14%	-0.3	1.0	-0.5%	1.1%	-5%	20%
O=C(CCN1N=C(c2ccccc2)CCC1=O)NC1CCCC1	12%	-0.5	3.0	1.3%	1.5%	-5%	4%
O=C(Nc1c(-c2ccccc2)nc2sccn12)c1ccccc1	-2%	-4.9	1.6	0.3%	0.2%	2%	-2%
COCCn1c(Cc2ccccc2)nnc1SCC(=O)NC(C)(C)C	14%	-1.5	1.3	-3.2%[38.3 µM]	-1.2%	9%	15%
Cc1ccc(C(=O)N/C(=C/c2cccs2)C(=O)NCC2CCCO2)cc1 (stereo unspecified)	3%	-3.6	-0.4	8.4%	nt	-5%	5%
Cc1ccc(CS(=O)(=O)CCC(=O)NCc2ccccc2Cl)cc1	11%	4.4	-6.7	-0.3%	1.6%	-4%	?
COc1ccc(-c2sc3ccc(OC)cc3c2-c2ccc(OC)c(F)c2)cc1	nt	-5.3	nt	1.0%	3.9%	-5%	?
C[C@@H](C(=O)OCC(=O)c1ccccc1)N1C(=O)C2CCCCC2C1=O (stereo partly specified)	nt	-4.4	nt	0.9%	-1.5%	-8%	-5%
O=C(NCc1ccccc1)C1CCN(S(=O)(=O)c2ccc(Cl)cc2)CC1	10%	-13	-9.0	-0.2%	nt	5%	-11%[15.4 µM]
O=Cc1ccc(-c2ccc([N+](=O)[O-])cc2Cl)o1	-27%	0.4	0.3	1.9%	nt	-15%	0%[15.4 µM]
Cc1cccc(NC(=O)C2CCCN2C(=O)Oc2ccccc2)c1C (stereo unspecified)	-3%	-3.2	0.6	-0.5%	-0.5%	3%	5%
CCCCCCn1c(=O)c(C(=O)N/N=C/c2cccc(F)c2)c(O)c2ccccc21	-13%	-1.9	-1.5	1.1%	nt	7%	-42%[inhibitor]
COc1ccc(CC(=O)Nc2cc(Cl)ccc2C(=O)O)cc1	22%	-11	-0.1	0.9%	-13%	-31%	-13%
CCOC(=O)C1=CC(=O)CC(C)(C)O1	nt	-0.4	nt	-0.4%	-0.5%	0%	4%[15.4 µM]
CCOC(=O)c1cnn(-c2ccccn2)c1N	1%	0.3	4.9	3.5%	-2.7%	8%	22%
CCCNC(=O)NC1CCCCCCC1	7%	-0.1	-4.0	-0.2%	nt	13%	-1%[15.4 µM]
N#CC1=C(N)N(c2ccccc2)C(c2ccccc2)C1(C#N)C#N (stereo unspecified)	8%	-3.9	3.1	-1.7%	10µM*	1%	20%
Cc1sc2c(c1C)c(=O)n(-c1ccc(F)cc1)c(=O)n2CC(=O)NCc1ccco1	-6%	-2.5	-0.6	?	-0.5%	6%	-1%[15.4 µM]
CCOc1ccccc1CN1CCN(Cc2cc3ccccc3[nH]2)CC1CCO (stereo unspecified)	9%	-2.4	0.6	14%	nt	4%	2%[15.4 µM]
CCCCN(C=O)c1c(CC)nc2ccc(C(=O)N(CC)CCN(C)C)cn12	nt	-4.4	nt	-0.8%	-0.4%	nt	nt
C/C(=N\Nc1ccc(F)cc1)c1ccncc1	-12%	1.1	3.6	8.4%	-1.0%	4%	-7%
NC(=O)CC(NC(=O)Cc1ccc(Br)cc1)c1ccc(NCCN2CCOCC2)c([N+](=O)[O-])c1 (stereo unspecified)	11%	-1.5	2.0	0.0%	-0.3%	11%	1%
CCN(CC)c1ncnc2c1ncn2[C@H]1CN(Cc2ccc(-c3ccccc3)cc2)C[C@@H](CO)O1	nt	7.3	nt	10%	1.4%	nt	nt
Cc1cc(N2CCN(C)CC2)nc2ccc(NC(=S)NCCCN3CCN(C)CC3)cc12	10%	-3.2	-1.2	0.7%	4.0%	-2%	?
CC(C)Cn1c(O)c(N=NC(=O)c2cccc(S(=O)(=O)N3CCCCC3)c2)c2ccccc21	2%	-5.5	0.6	3.5%	-1.2%	-15%	?
Carrying on.
SMILES	Sfp PPTase inh	D2 agonist	Menin-MLL FL inh	PINK1 modulator	ClpP mod	gsp antag	gsp agonist
CSc1ccccc1NC(=O)COC(=O)CSc1ccc(C)cc1	nt	-5.1	nt	-0.2%	1.8%	-3%	-1%[15.4 µM]
Cc1cccc(NC(=O)c2cccc(S(=O)(=O)N(C)c3ccccc3)c2)n1	nt	8.2	nt	2.3%	2.5%	?	-46%[inhibitor]
Cc1ccc(S(=O)(=O)N(C)c2ccc(C(=O)NCc3cccnc3)cc2)cc1	-3%	-6.1	nt	0.0%	-1.6%	-9%	19%
Nc1nc(NCCO)nc(N2CCCCCC2)c1[N+](=O)[O-]	19%	0.5	1.3	-2.9%	0.1%	14%	?
CC(Oc1cccc2c1OC(C)(C)C2)C(=O)O (stereo unspecified)	22%	-1.8	-1.9	2.3%	3.0%	7%	-6%
CSc1nc(N)nc(SCC(=O)c2ccc(C)cc2)c1C#N	-6%	-1.4	-0.7	7.0%	-1.4%	-20%	?
CCCCOc1ccc(N(CC(=O)NCc2ccco2)C(=O)CCC(=O)Nc2nccs2)cc1	18%	0.8	1.2	7.2%	nt	-27%	-2%[15.4 µM]
CCN(CCCNC(=O)CCn1c(=O)[nH]c2ccsc2c1=O)c1ccccc1	4%	1.5	-4.2	-0.6%	nt	-4%	-2%[15.4 µM]
COc1ccc(C2=NS(=O)(=O)N(C)C(C(=O)N3CCCCC3)=C2)cc1	2%	-1.3	-7.3	2.0%	-1.8%	-8%	?
CC(C)C[C@@H](CN(N=O)[C@@H](Cc1ccccc1)CN(C)N=O)N(CCc1ccccc1)N=O	10%	1.7	1.2	0.6%	1.0%	-14%	nt
CN1CCN(CCCNC(=O)Cn2nc(-c3ccccc3)ccc2=O)CC1	8%	-1.1	1.1	2.4%[38.3 µM]	-11%	5%	-17%
CC1(C)CC(=O)C=C(Nc2ccccc2NC(=O)c2cnccn2)C1	11%	-2.9	1.0	-0.5%	-0.2%	-2%	0%
COCC(C)NC(=O)NC(=O)c1ccc(Cl)cc1 (stereo unspecified)	10%	-1.1	3.3	nt	-2.5%	1%	29%
COc1ccc(CCc2nnc(CCC(=O)NCC3CCCO3)o2)cc1 (stereo unspecified)	16%	-1.7	-4.0	0.2%	nt	-5%	17%
C=C(C)Cn1c(SCC#N)nc2ccccc2c1=O	-4%	-3.6	0.4	-0.4%	-5.3%	1%	-4%
COc1ccccc1CNC(=O)CCC(=O)N1CCOc2ccc(C)cc21	?	-3.9	-2.8	0.3%	-2.8%	-10%	-46%[inhibitor]
Cc1ccc2c(c1)N(CCC(=O)NC1CCCCC1)C(=O)CO2	14%	1.1	?	1.8%	nt	11%	-7%[15.4 µM]
CC(/C=C/c1ccccc1)=N\NC(=O)CNC(=O)c1ccccc1Cl	-17%	-4.8	1.1	-0.1%	1.2%	-8%	?
COc1ccc(OC)c(C2=NS(=O)(=O)N(C)C(C(=O)Nc3ccc(C(C)=O)cc3)=C2)c1	10%	0.2	1.6	0.8%&-2.3%	0.5%&-0.3%	?	7%
CCOC(=O)c1cccc(COC(=O)c2cccc(-c3nnc(-c4ccccc4)o3)c2)c1	2%	-5.0	-2.2	11%	32µM*	-1%	-39%[inhibitor]
COC(=O)c1ccc(CSc2nnc(CNC(=O)c3cccs3)o2)o1	7%	-3.3	1.0	-0.4%	0.3%	12%	-20%
CC(=O)c1ccc(NC(=S)N2CCC(O)CC2)cc1	9%	-2.3	1.5	-0.2%	0.4%	5%	?
Cc1ccc(C(=O)NNC(=O)C2CCN(S(=O)(=O)c3ccc(Cl)cc3)CC2)cc1	10%	-2.5	2.7	7.0%	-2.6%	3%	8%
Oc1cccc(/C=N\Nc2nncc(-c3ccccc3)n2)c1	2%	3.4	?	1.8%	nt	-14%	-2%[15.4 µM]
Cc1ccc(C)c(NNC(=O)C(=O)NNc2cc(C)ccc2C)c1	15%	?	3.2	5.6%	-8.6%	-8%	9%[15.4 µM]
The list goes on:
SMILES	Sfp PPTase inh	D2 agonist	Menin-MLL FL inh	PINK1 modulator	ClpP mod	gsp antag	gsp agonist
COCCNC(=O)CSc1nnc2c(Cl)cc(Cl)cn12	6%	-1.5	0.1	0.5%	39%	11%	?
Cc1cc(/C=C2\NC(=O)NC2=O)c(C)n1-c1ccc(N2CCOCC2)cc1	0%	-23	10	-0.6%	nt	-14%	-15%[15.4 µM]
O=C(C1CCN(S(=O)(=O)N2CCOCC2)CC1)N1CCN(c2ccccc2)CC1	4%	2.0	3.8	1.7%	-2.8%	-2%	?
O=C(COC(=O)c1ccc2c(c1)OCO2)NCc1ccc2c(c1)OCO2	11%	0.8	-0.8	-1.8%	-15%	4%	3%
C=CCn1c(N)c(C(=O)OCCC)c2nc3ccccc3nc21	-5%	-5.5	2.4	2.3%	?	-1%	?
CC(C)C(=O)NCCn1ccc2ccccc21	5%	-1.6	-4.0	-2.6%	-6.9%	-10%	0%
CSc1nccn1C(=O)c1ccccc1[N+](=O)[O-]	40µM*	-4.7	3.4	0.0%	3.6%	9%	16%
COc1cc2cc(C)c(SCC(=O)N3CCN(C(=O)c4ccco4)CC3)nc2cc1OC	-19%	-14	6.3	0.6%	-16%	-10%	-3%
CC1(C)C(=O)OC(C(=O)c2ccccc2)C(C)(C)C1=O (stereo unspecified)	20%	-1.6	1.5	1.4%	-0.7%	7%	-23%
CCN1C(=O)CS/C1=N\S(=O)(=O)c1ccc(C)cc1	5%	1.7	4.8	-0.2%	nt	2%	1%[15.4 µM]
C/C(=N\NC(=O)C1CC1(c1ccccc1)c1ccccc1)c1cccc([N+](=O)[O-])c1 (stereo unspecified)	19%	1.0	1.2	4.7%	-9.5%	6%	8%[15.4 µM]
CCc1nnc(NS(=O)(=O)c2ccc(NC(=O)c3ccccc3OC)cc2)s1	22%	-8.3	-0.3	-1.1%	-0.1%	-12%	-44%[inhibitor]
CN(Cc1cc(=O)n2ccsc2n1)c1ccccc1	?	-0.1	-27	0.5%	-0.7%	1%	-5%
